Assay outcomes from PubChem.
Vaccinia Venus: vaccinia inhibition (Venus reporter). Vaccinia virus Venus reporter expression, fluorescence. Potency, µM (top dose mostly 36.5 µM), inactives show top-dose activity change, negative = inhibition, actives largely listed as inhibitors. 0.46% of 330,000 active. AID 720580; active means well fitted inhibition curve with a large enough effect; inconclusive means small, poorly fitted or top-dose-only effect; inactive means no such curve, though single readings can be large or run the other way; tested in A549 cells; note: nearly all actives have a fitted effect of over 30% in size; inactives centre near -10
VACV mCherry inh: inhibitors of vaccinia virus infection (mCherry reporter signal). Vaccinia virus mCherry reporter infection, fluorescence; about a quarter of the inactives have no number. Potency, µM (doses to about 36.5 µM), inactives show at the top dose activity change, negative = inhibition, most hits filed as inhibitors. AID 720579. 0.63% of 310,000 active; active = well fitted inhibition curve with a large enough effect; inconclusive = small, poorly fitted or top-dose-only effect; inactive = no such curve, though single readings can be large or run the other way; tested in A549 cells; note: nearly all actives have a fitted effect of over 35% in size; inactives centre near -10
Active calls of the source: *; i = inactive; ? = inconclusive; / = no result given; & = joins results of further samples; [ ] = another dose, or the depositor's remark. % is set by controls: 0 for no effect and ±100 for the full control effect; potency is the fitted concentration of half-maximal effect.

Sequence of screens – Vaccinia Venus, VACV mCherry inh
O=C(Nc1cccc(NC(=O)c2ccc(-c3cccc(Br)c3)o2)c1)c1ccco1
  -15%, -3%
Cn1c(SCC(=O)NCc2ccc3c(c2)OCO3)nnc1C1COc2ccccc2O1 (centres undefined)
  0%, -12%
O=C(O)c1ccc(/C=N\Nc2ccccn2)cc1
  -7%, -18%
CCOc1cccc(C(=O)Nc2cccc(C(=O)NC(C)(C)C)c2)c1
  -14%, -12%
COc1ccc(-c2cn3nc(N4CCC(C(=O)Nc5cc(Cl)ccc5OC)CC4)sc3n2)cc1
  -19%, -15%
COc1ccc(N2C(=O)CCSC23C(=O)N(Cc2ccc(F)cc2)c2ccccc23)cc1Cl (centres undefined)
  ?, ?
COc1ccc(NS(=O)(=O)c2cc3c(cc2C)N(C)CCO3)c(OC)c1
  -16%, -30%
O=S(=O)(/N=C(/Nc1ccccn1)c1ccc(Cl)cc1)c1ccc(Cl)cc1
  -8%, -3%
COCCN(C(=O)CCC(=O)Nc1nccs1)C(C(=O)NC(C)(C)C)c1ccc(C)cc1 (centres undefined)
  -13%, -14%
O=C(COC(=O)c1cccnc1)Nc1cccc2ccccc12
  -6%, -8%
CCCCNC(=O)C1c2ccccc2OCC(=O)N1CCc1c[nH]c2ccccc12 (centres undefined)
  0%, 39%[activator]
CC(=O)Nc1ccc(NC(=O)CN(C)CC(=O)Nc2ccccc2Br)cc1
  3%, -9%
CC1CN(C(=O)c2cccc(C(=O)N3CC(C)OC(C)C3)c2)CC(C)O1 (centres undefined)
  -27%, /
N#C/C(=C(/O)c1ccc(Br)s1)c1nc2ccccc2[nH]1
  -24%, 6%
Cc1ccc(S(=O)(=O)N2CCC(c3nnc(-c4cccc(C)c4)o3)CC2)cc1
  -10%, -12%
CCOC(=O)C1CCN(S(=O)(=O)c2ccc(NC(C)=O)c(Cl)c2)CC1
  -5%[7.34 µM], -20%[7.34 µM]
COc1ccccc1NC(CC(=O)c1ccccc1)C(=O)OCC(=O)c1ccc(C)c(C)c1 (centres undefined)
  0%, -8%
Cc1ccc(NC(=S)N2CCCC(c3nc4ccc(C)cc4[nH]3)C2)c(C)c1 (centres undefined)
  ?, ?
CC(C)(C)C(=O)N1CCN(c2ccc3c(c2)C2CC3CCN2C(=O)OCc2ccccc2)CC1 (centres undefined)
  1%, 3%
c1ccc(-c2nnc3nc(N4CCCCC4)nc(N4CCCCC4)n23)cc1
  -8%, i

As entered above.
`COc1ccc(-c2cn3nc(N4CCC(C(=O)Nc5cc(Cl)ccc5OC)CC4)sc3n2)cc1` @ Vaccinia Venus: -19%
`Cn1c(SCC(=O)NCc2ccc3c(c2)OCO3)nnc1C1COc2ccccc2O1` (centres undefined) @ Vaccinia Venus: 0%
`COc1ccccc1NC(CC(=O)c1ccccc1)C(=O)OCC(=O)c1ccc(C)c(C)c1` (centres undefined) @ Vaccinia Venus: 0%
`Cc1ccc(S(=O)(=O)N2CCC(c3nnc(-c4cccc(C)c4)o3)CC2)cc1` @ Vaccinia Venus: -10%
`CC(C)(C)C(=O)N1CCN(c2ccc3c(c2)C2CC3CCN2C(=O)OCc2ccccc2)CC1` (centres undefined) @ Vaccinia Venus: 1%

Continued:
Sequence of screens – Vaccinia Venus, VACV mCherry inh
COC(=O)c1ccc2cc(OC)c(OC)cc2c1
  -24%, -11%
COc1ccc(C(=O)N(Cc2ccco2)Cc2ccc(C)o2)cc1
  0%, 0%
O=C(CCN1CCN(Cc2ccccc2)CC1)NNC(=O)Nc1cccc(Cl)c1
  -28%, -15%
CCOC(=O)c1c(NC(=O)c2cccnc2)sc(C)c1C
  0%, -9%
COc1ccc(NC(=O)CN2CCN(C(=S)NC3CCCC3)CC2)cc1
  -12%, -26%
CC(=O)N1CC=CC1(CC(C)C)C(=O)NCc1cc(F)cc(C(F)(F)F)c1 (centres undefined)
  -9%, i
Cc1cccc(Nc2ncnc3onc(-c4ccc(Cl)cc4)c23)c1C
  0%, -9%
CC1CCCCN1CC(O)COCCC12CC3CC(CC(C3)C1)C2 (centres undefined)
  -1%, ?
CC12CCC(=O)C=C1CCC1C2C(O)CC2(C)C1CCC2(O)C(=O)CO (centres undefined)
  -11%, -9%
Cc1cc(C)nc(NS(=O)(=O)c2ccc(NC(=O)c3ccco3)cc2)n1
  ?, /
O=C(NCCCc1nc2ccccc2n1CCCCOc1ccccc1)C1CCCCC1
  -26%, -13%
COc1cccc(C2C(C#N)=C(N)N(N(C)C)C3=C2C(=O)CC(C)(C)C3)c1 (centres undefined)
  -2%, i
COc1cc(CCC(=O)OCC(=O)Nc2ncc(Cl)cc2Cl)cc(OC)c1OC
  23%, /
Cc1c(Cl)cccc1-n1nc(C)c2c(C)cc(=O)n(CC(=O)NCc3ccccc3)c21
  -2%, 9%
Cc1cc(=O)n(C2CCS(=O)(=O)C2)[nH]1 (centres undefined)
  2%, -2%
Cc1cc(C(F)(F)F)nn1Cc1n[nH]c(=S)n1-c1ccc(Cl)cc1
  -11%, -15%
c1cc2c(cc1N1CCOCC1)CNCc1cnnn1-2
  -9%, 43%[activator]
CCCCc1nc2cc(C(=O)N3CCCCC3COC)ccc2o1 (centres undefined)
  -8%, i
C=C1C(C(=O)Nc2cccc(OC)c2)C1C(=O)Nc1cccc(OC)c1 (centres undefined)
  -5%, i
CS(=O)(=O)c1ccc(C2=C(CNC(=O)c3cccnc3)[C@H]3CC[C@@H](C2)N3Cc2ccco2)cc1
  -2%, i

Part of the list above in order of length of the SMILES, descending:
Sequence of screens – Vaccinia Venus, VACV mCherry inh
COc1cccc(C2C(C#N)=C(N)N(N(C)C)C3=C2C(=O)CC(C)(C)C3)c1 (centres undefined)
  -2%, i
Cc1cc(C)nc(NS(=O)(=O)c2ccc(NC(=O)c3ccco3)cc2)n1
  ?, /
C=C1C(C(=O)Nc2cccc(OC)c2)C1C(=O)Nc1cccc(OC)c1 (centres undefined)
  -5%, i

The results go on.
Sequence of screens – Vaccinia Venus, VACV mCherry inh
CCc1ccc(-c2csc(NC(=O)Oc3ccccc3)n2)cc1
  -30%, ?
CCC(C(=O)Nc1nc(C)c(C(=O)OC)s1)c1ccccc1 (centres undefined)
  -21%, -3%
COc1ccc(/C=C/C2=CC(C)(C)NC(=S)N2)cc1
  -9%, -17%
Cc1cc(C(=O)N2CCN(c3ncccc3C#N)CC2)no1
  -7%, -10%
COc1ccc(-n2nnnc2SCC(=O)c2ccc3c(c2)OCCO3)cc1
  -17%, -24%
CCOc1ccc(CNC(=S)Nc2ccccc2)cc1Cl
  -1%, i
C=CCNC(=O)C1CC(=O)N(c2ccc(OCC(=O)Nc3ccc(Cl)cc3)cc2)C1 (centres undefined)
  2%, -8%
CN(C(=O)COC(=O)/C=C/c1cn(-c2ccccc2)nc1-c1ccc2c(c1)OCCO2)C1CCS(=O)(=O)C1 (centres undefined)
  -12%, -7%
CC(C(=O)O)c1ccc(N2Cc3ccccc3C2=O)cc1 (centres undefined)
  ?, -18%
CC1=CC(c2ccccc2)n2nc(N)nc2N1 (centres undefined)
  -8%, -20%
CC(=O)N1CCCc2cc(S(=O)(=O)NCc3ccccc3Cl)ccc21
  -18%, -16%
COc1cc(OC)cc(C(=O)N[C@H](C(=O)Nc2ccc(S(=O)(=O)N(C)C)cc2)C(C)C)c1
  -13%, -1%
COc1cc(OC)cc(C(=O)NCCNC(=O)c2ccco2)c1
  -1%, /
CC(C)Oc1ccc(C(=O)NCC2Cc3cc(F)cc(-c4cnccn4)c3O2)cc1 (centres undefined)
  7%, -6%
CCn1c2ccccc2c2nnc(SCC(=O)Nc3cc(C)on3)nc21
  -22%, -15%
O=C(CNC(=O)c1ccc(Oc2ccccc2)cc1)OCc1ccc(Br)cc1
  -8%, -14%
COC(=O)c1c(NC(=S)NN2CCOCC2)sc2c1CCCC2
  -5%, i
CCOC(=O)N1CCN(C(=O)C[C@@H]2C[C@@]3(C(=O)OCC)CCC=C3N(CCC3=CCCCC3)C2=O)CC1
  -1%, -12%
Cc1cc(Cl)ccc1NC(=O)C1CCN(S(=O)(=O)c2ccc3[nH]c(=O)ccc3c2)CC1
  -5%, -6%
Cc1sc(NC(=O)C2=COCCO2)nc1-c1ccc(F)cc1
  ?, -30%
CCO[C@H]1OC(C(=O)N2CCCCCCC2)=C[C@@H](c2ccc(C(F)(F)F)cc2)[C@@H]1CCCO
  -7%, -10%
CC(OC(=O)C1=COCCO1)C(=O)Nc1ncc(Cl)cc1Cl (centres undefined)
  -1%, -2%
CCOc1ccc(C(=O)CCNC(Cc2cnc[nH]2)C(=O)O)cc1 (centres undefined)
  -3%, -15%
COc1ccccc1N(C)S(=O)(=O)c1ccc(C(=O)N2CCC2)cc1
  -9%, -25%
Cc1ccc(CNC(=O)CN(c2ccc(C)cc2)S(=O)(=O)c2c(C)nn(C)c2C)cc1
  -4%, 1%
COc1cc(NC(=O)Cn2cnc(S(=O)(=O)N3CCOCC3)c2)cc(OC)c1OC
  -3%, -14%
CCc1c(C)[nH]c2ccc(C)cc2c1=O
  -4%, -7%
Cc1cc(S(=O)(=O)NCC(c2ccco2)S(=O)(=O)c2ccccc2)ccc1F (centres undefined)
  -19%, -14%
O=Nc1c2ccc[nH]c-2c2ccc([N+](=O)[O-])cc12
  -5%, -11%
COc1cc(/C=N/N2CCN(C3c4ccccc4-c4ccccc43)CC2)cc(OC)c1OC
  -12%, -14%
CSc1ccccc1C(=O)NCCSc1ccc(C)cc1
  -9%, i
COc1ccc2nc(NC(=O)c3nc(S(=O)(=O)Cc4ccccc4F)ncc3Cl)sc2c1
  1%, -7%
CC1CN(C(=S)NC(=O)c2ccc([N+](=O)[O-])cc2)CC(C)O1 (centres undefined)
  -15%, /
CC(=O)c1cccc(NC(=O)c2ccc(NC(=O)CCS(=O)(=O)c3cccs3)cc2)c1
  8%, -6%
CCCn1nc2cc(C(=O)NCCc3ccc(C)cc3)ccc2c1OCC
  -20%, i
CC(C)Cn1c(N)c(C(=O)COC(=O)CC23CC4CC(CC(C4)C2)C3)c(=O)n(C)c1=O
  ?, /
Cc1cc(OC2CCCCC2)nc(NCc2ccccc2)n1
  -3%, -8%
Cc1cc2nc(/N=C(\N)NC(=O)N3c4ccccc4Sc4ccccc43)nc(C)c2cc1C
  0%&6%, ?
COc1ccc2nc(C)cc(N3CCN(c4ccccc4)CC3)c2c1
  -3%, -20%
CCN(CC)C(=O)Cn1cc(C(=O)C(=O)N2CC=C(c3ccccc3)CC2)c2ccccc21
  -4%, 0%
CCOC(=O)C1=CCN(S(=O)(=O)c2ccccc2Br)C1c1ccc(F)cc1 (centres undefined)
  -5%, i
CC(=O)N1CCSc2ccc(S(=O)(=O)NCc3ccccc3)cc21
  -27%, -1%
COc1ccc(-c2nc3cc(NC(=S)NC(=O)Cc4ccccc4)ccc3o2)cc1
  -13%, i
CC(=O)c1cccc(NC(=O)COc2ccccc2C(=O)Nc2ccccc2)c1
  -12%, -14%
Cn1ccc(C(=O)N/N=C/c2ccncc2)n1
  -24%, -10%
CCOc1ccc(-n2c(SCC(=O)c3ccccc3)nc3c([nH]c4ccccc43)c2=O)cc1
  3%, -14%
COc1ccc(CN(C)C(=O)/C=C/c2ccc(S(=O)(=O)N3CCOCC3)cc2)cc1F
  -21%, -23%
O=C(NC1CCCCC1)C(c1cccc2ccccc12)n1c(=O)c(-c2ccco2)nc2ccccc21 (centres undefined)
  -4%, i
CSc1nc2c(=S)[nH]c(=S)[nH]c2s1
  -5%, -14%
C=CCNCC#CCOc1ccc(OC)cc1
  -14%, ?
COc1ccc2c(c1)sc1ncc(C(=O)NCc3cccc(Cl)c3)c(=O)n12
  -9%, 3%
CCCCOc1ccc(CONS(=O)(=O)c2ccc(NC(C)=O)cc2)cc1Cl
  -8%, -6%
CCN(C(=O)CSc1nnc(-c2ccncc2)n1C)C1CCS(=O)(=O)C1 (centres undefined)
  2%, -8%
O=c1[nH]cc(NCCc2ccccc2)c(=O)[nH]1
  1%, -2%
CCOC(=O)C1(CCOc2ccccc2)CCN(CC2CC2)CC1
  -17%, 0%
O=c1cc(NC2CCCCC2)[nH]c(=O)[nH]1
  -3%, -5%
O=C(Nc1ccc(S(=O)(=O)N2CCCC2)cc1)c1cccnc1
  -21%, /
CC(C)NC(=S)NN=C1c2ccccc2-c2ccccc21
  -1%, -15%
Cc1cccc(-n2c(=O)c3c(n4cnnc24)-c2ccccc2CC32CCCCC2)c1
  -5%, /
COc1ccc(/C=N/Nc2ccccc2C(=O)O)cc1
  -15%, -9%

Shown bar-delimited: three of the compounds above.
Molecule | Vaccinia Venus | VACV mCherry inh
COc1ccc(-n2nnnc2SCC(=O)c2ccc3c(c2)OCCO3)cc1 | -17% | -24%
Cc1cccc(Nc2ncnc3onc(-c4ccc(Cl)cc4)c23)c1C | 0% | -9%
COc1ccc(/C=C/C2=CC(C)(C)NC(=S)N2)cc1 | -9% | -17%

(further entries)
Sequence of screens – Vaccinia Venus, VACV mCherry inh
Cc1ccc(NC(=O)CSc2nn3c(=O)c(C)nnc3s2)cc1Cl
  -16%, -11%
N#Cc1ccc(C(=O)NC(=S)N2CCN(C=O)CC2)cc1
  -15%, i
Cc1ccc(NC(=O)COC(=O)CCc2ccc(S(=O)(=O)N3CCOCC3)cc2)cc1F
  3%, -10%
Cc1cc(C)c2cc(CN(Cc3cccs3)Cc3nnnn3CC3CCCO3)c(=O)[nH]c2c1 (centres undefined)
  -28%, -19%
O=C(NC(c1ccccc1)c1ccsc1)C1CCN(Cc2ccc(Oc3ccccc3)cc2)CC1 (centres undefined)
  -13%, i
Cc1ccc(N2C(=O)CN(Cc3sccc3C)C2=S)cc1C
  -3%, i
